# Screening results as filed in PubChem BioAssay.
# KSHV LANA nucl: inhibitors of KSHV LANA-nucleosome binding, primary screen, biochemical, fluorescence polarization, FITC-LANA1-23, chicken nucleosomes | z-score (test concentration not listed) | FITC-LANA1-23 / chicken nucleosome fluorescence polarization; active compounds read low | 51,000 tested, 0.3% active | AID 720717, 2013;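 active = both repeat wells score below -2 in polarization z-score versus plate sample wells, excluding overly bright wells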;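 also: 100 nL library stock added to about 30 µL; numbers are from one replicate; some results filed as inactive read as strong as hits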
#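 Material: Purified chicken nucleosomes with FITC-labelled LANA N-terminal peptide (1-23) | Reagent: 50 nM FITC-LANA1-23 probe | Medium: TEN-BT buffer, pH 7.5 | Times: 10–45 min incubation at room temperature | Detection: Fluorescence polarization | Replication: Duplicates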
# BasE inh: BasE siderophore enzyme inhibitors, primary screen, biochemical, Acinetobacter baumannii ATCC 17978, fluorescence polarization | 84,000 tested, 0.1% active | inhibition, % (no concentration beside the values) | purified BasE, fluorescence polarization binding displacement;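 active = both replicates above 25% with normal brightness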;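 also: 0% = negative plate control signal and 100% = positive plate control signal; stock transfer was 100 nL into about 30 µL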
# The depositor's hits bear a star; nt = not tested or not shown. A portion of the library; rates above refer to the full screens.
Structure,KSHV LANA nucl,BasE inh
Cc1cccc(C(=O)NC2CCCCC2C)c1 (stereo not given),0.033,-0.2
CCOC(=O)C(CC)Sc1ccc2nnc(CCNC(=O)c3ccc(F)cc3)n2n1 (stereo not given),-0.4,1.1
CCn1c(CS(=O)(=O)c2cc(C)ccc2C)nc2cc(C(=O)O)ccc21,nt,2.0
CSc1cccc(NC(=O)COCc2cc(-c3ccc4c(c3)OCO4)on2)c1,1.2,0.0
CNC(=O)NC(=O)CSc1nnc(SCC(=O)NC(=O)NC)s1,nt,1.8
CC(CC(=O)OCc1ccccc1)n1ccnc1 (stereo not given),nt,0.4
Cc1ccc(S(=O)(=O)N2C(=O)CCC2c2nc(-c3cccnc3)no2)cc1 (stereo not given),-0.18,-2.9
O=C1c2ccccc2S(=O)(=O)NN1CN1C(=O)c2ccccc2C1=O,nt,2.0
COc1cc(CNC2C3CC4CC(C3)CC2C4)ccc1OCc1cccs1 (stereo not given),nt,-3.0
COC(=O)CSc1nc2ccc(C(C)C)cc2cc1C#N,-0.18,-0.3
O=C(O)CCc1nc2ccc(C(=O)O)cc2[nH]1,nt,0.2
c1csc(CNc2ncnc3sccc23)c1,nt,-5.2
CCn1c2ccccc2c2nnc(SCC(=O)NC3CCCC3)nc21,nt,1.9
CC(C)(C)c1ccc(S(=O)c2sc3nc4c(cc3c2N)CCCC4)cc1 (stereo not given),nt,2.3
CC/C(Cc1ccccc1)=N\NC(=O)c1cc(C)oc1C,nt,-0.1
O=C(CN1C(=O)CC2(CCCC2)C1=O)NC1CCS(=O)(=O)C1 (stereo not given),nt,0.6
COc1ccc(NC(=O)NC(C)C2CC3CCC2C3)cc1 (stereo not given),0.14,-1.6
Ic1cccc(-c2nc(-c3ccccc3)no2)c1,-0.59,6.3
CN1c2ccccc2Sc2cc(N)ccc21,0.26,4.5
O=C(O)c1cc([N+](=O)[O-])ccc1NCCCc1ccccc1,0.47,2.4
C/C(=N\NC(=O)Cc1c(C)[nH]c(=O)[nH]c1=O)c1ccc(Br)cc1,0.76,0.8
CN(C)c1ccc(/C=C2/C(=O)c3ccc(C(=O)O)cc3C2=O)cc1,4.2,3.3
Cn1c(/N=C/c2c(O)ccc3ccccc23)nc2ccc(Br)cc21,0.16,29
Cc1onc(-c2ccccc2)c1C(=O)N[C@@H]1C(=O)N2[C@@H]1SC(C)(C)[C@@H]2C(=O)O,-0.17,nt
CC(C)CCNC1=NCCCCC1,nt,3.5
CCOc1ccc(C2CCCN2Cc2nc(N)nc(Nc3ccccc3)n2)cc1 (stereo not given),nt,-2.0
CC(C)NC(=O)c1ccc2c(c1)nnn2C,-0.91,0.6
Cc1nc(C(F)(F)F)ccc1C(=O)Nc1ccccc1-c1ccccc1,nt,1.5
CC(C)(C)C(=O)/C=C(/N)c1ccncc1,-0.27,2.3
Cc1ccc(-n2ncc3c(=O)[nH]c(SCc4ccccc4F)nc32)cc1C,-0.99,1.8
COC(=O)CSc1ccc2nnc(-c3cccnc3)n2n1,0.62,-1.2
COCCn1c(SC)nnc1-c1ccccc1,-0.12,0.3
CCOC(=O)C1CCCN(C(=O)Nc2ccccc2)C1 (stereo not given),0.28,2.5
CN1[C@@H]2CC[C@H]1CC(OC(=O)C(CO)c1ccccc1)C2 (stereo not given in full),1,nt
NC(=O)COC(=O)c1oc2ccccc2c1COc1ccccc1,nt,1.2
CCOc1cccc(/C=N/NC(=O)c2cc(-c3cccn3C)n[nH]2)c1O,-0.14,3.6
Cc1cnc(C(=O)Nc2cccc3ncccc23)cn1,-0.041,0.2
CN(C)c1nnnn1-c1ccccc1,1.3,nt
Cc1ccc(Cc2ccc(=O)[nH]n2)cc1,-0.14,nt
CC(C)CN(CC(C)C)S(=O)(=O)N1CCC(C(=O)NCc2cccnc2)CC1,-2.2,1.5

# Complete entries as entered above:
# CCOC(=O)C1CCCN(C(=O)Nc2ccccc2)C1 (stereo not given) in the list: KSHV LANA nucl = 0.28; BasE inh = 2.5
# CCOc1cccc(/C=N/NC(=O)c2cc(-c3cccn3C)n[nH]2)c1O in the list: KSHV LANA nucl = -0.14; BasE inh = 3.6

# Following part.
Structure,KSHV LANA nucl,BasE inh
CCC(CC)=NNC(=O)c1cc(-c2ccccc2)n[nH]1,nt,0.7
O=C1c2ccccc2NC(c2ccc3c(c2)OCCO3)N1CCc1ccccc1 (stereo not given),nt,1.8
O=C(COc1ccc2cc(Br)ccc2c1)NC(=O)NCc1ccco1,nt,2.2
CCOC(=S)SCc1ccc(C(=O)Oc2ccc(F)cc2F)cc1,nt,0.5
NCCCNc1ccc(C(F)(F)F)cn1,0.35,-2.0
C#CCCN1CCN(C(=O)Nc2ccc(F)cc2)CC1,0.88,0.0
CC(C)/C(N)=N/OC(=O)c1ccc(I)cc1,0.55,-1.0
COCCn1c(SCC(=O)c2ccc3c(c2)OCCO3)nc2ccccc2c1=O,nt,0.0
COc1cc(CN(C(=O)/C(=C/c2cccnc2)NC(=O)c2ccccc2)C2CCCCC2)ccc1O,nt,0.0
Cc1ccc(NC(=O)C(CC(C)C)NS(=O)(=O)c2ccc3c(c2)CCCC(=O)N3)cc1 (stereo not given),nt,-0.3
S=C(Nc1ccccc1)N1CCn2cccc2C1c1cccnc1 (stereo not given),-0.28,0.3
O=C1c2cccnc2C(=O)N1Cc1ccc(F)cc1S(=O)(=O)N1CCCC1,-0.26,-1.4
CSCC(CSC)OC(=O)c1c(-c2c(Cl)cccc2Cl)noc1C,nt,1.6
N=C1SCC(=O)N1c1nc(-c2ccccc2)cs1,0.71,0.1
CCN(CC(=O)NCc1ccc(Cl)cc1)CN1C(=O)C2CC=CCC2C1=O (stereo not given),nt,-0.3
CS(=O)(=O)c1cccc(C(=O)Nc2ccnn2C2CCCC2)c1,nt,-3.0
COc1ccc(CN=Cc2c(O)[nH]c3ccccc23)cc1OC,0.41,2.1
COC(=O)CN(C)S(=O)(=O)c1ccc(Br)cc1,-0.42,1.7
CC(Sc1nnc2c(Cl)cc(Cl)cn12)C(=O)NCc1ccco1 (stereo not given),nt,0.0
O=C1N=C(c2ccccc2)S/C1=C\c1cccs1,nt,4.8
CSc1nncn1/N=C/c1ccc(Br)cc1,0.046,2.2
COc1ccc(C(=O)NCCc2cn3ccccc3n2)cc1,1.5,0.4
O=C1c2ccccc2C(=O)N1CCc1ccccc1,0.54,1.2
CCOC(=O)c1ccc(N=C(N)SCc2ccc(Cl)cc2)cc1,nt,-3.2
CC1(NC(=S)Nc2ccc(O)cc2)CCS(=O)(=O)C1 (stereo not given),nt,0.6
Cc1c(CCC(=O)NCc2ccc3c(c2)OCO3)c(=O)oc2cc3occ(C(C)(C)C)c3cc12,-0.11,0.8
O=C1CN(C(=O)CSC2=Nc3ccccc3CS2)c2ccccc2N1,nt,-1.8
Cc1ccc(NC(=O)c2cc(C)oc2C)c(Br)c1,nt,1.1
C=CCn1c(C)csc1=Nc1ccc(C(=O)OCC)cc1,nt,2.5
O=C(COc1ccc2oc3c(c2c1)CCCC3)OCc1ccccn1,nt,2.1
CCOC(=O)c1c(CN2CCOCC2)n(C)c2cc(Br)c(OC(C)=O)cc12,-0.21,-2.1
O=C(Cn1nc(-c2ccccc2)c2c(c1=O)CCCC2)Nc1ccccc1,-0.32,-1.2
O=C(NCc1ccco1)NNc1nc2c(-c3ccccc3)nnn2c2ccccc12,3.4,-2.6
S=C(NCCCN1CCOCC1)N1CCN(c2ccccc2)CC1,1.6,-0.6
CC(CCc1ccccc1)NC(=O)c1cccs1 (stereo not given),0.43,2.5
COC(=O)C1=CN(C)C=C(C(=O)OC)C1c1cccs1,-0.25,1.0
CC(=O)NS(=O)(=O)c1ccc(-c2ccc(/C=C3/C(=O)NN(c4cccc(Cl)c4)C3=O)o2)cc1,nt,0.1
c1ccc(CNCc2ccccn2)cc1,1.8,0.1
c1cc(OCc2nc3ccccc3s2)cc(-n2cnnn2)c1,nt,0.3
N#CCOC(=O)/C=C/c1ccc2c(c1)OCO2,nt,1.8

# Four of these compounds, reformatted.
CSc1nncn1/N=C/c1ccc(Br)cc1
  KSHV LANA nucl: 0.046 | BasE inh: 2.2

COc1ccc(C(=O)NCCc2cn3ccccc3n2)cc1
  KSHV LANA nucl: 1.5 | BasE inh: 0.4

O=C1c2ccccc2C(=O)N1CCc1ccccc1
  KSHV LANA nucl: 0.54 | BasE inh: 1.2

CCOC(=O)c1ccc(N=C(N)SCc2ccc(Cl)cc2)cc1
  KSHV LANA nucl: nt | BasE inh: -3.2

# (continued)
# Every second line gives: KSHV LANA nucl | BasE inh
- COc1ccccc1CC(=O)NCc1ccc(-c2cccs2)cc1
→ nt | 1.1
- CCS(=O)(=O)Nc1cc(OC)c(OC)c(OC)c1
→ 2.6 | -3.9
- Cn1c(N)c(C#N)c2c(c1=S)CCCC2
→ -0.18 | -0.8
- CCOC(=O)c1c(-c2ccc(C)o2)csc1NC(=S)NC(=O)N(C)C
→ 0.79 | -1.0
- O=C(OCC(=O)N1CCCC1=O)c1ccc(-c2ccc(O)cc2)cc1
→ nt | 1.3
- N#Cc1ccc(C2SCCCS2)cc1
→ nt | 2.5
- CC(C)N(Cc1ccccc1)C(=O)COc1ncnc2c1cnn2-c1ccccc1
→ nt | 1.1
- O=C(Cn1nnc(-c2cc(C(F)(F)F)cc(C(F)(F)F)c2)n1)c1ccc(Cl)cc1
→ nt | 0.5
- CON(C)S(=O)(=O)c1cccc(C(=O)Oc2ccc(-c3nnco3)cc2)c1
→ nt | 0.7
- COc1ccc(S(=O)(=O)N(Cc2cc3cc4c(cc3n3nnnc23)OCO4)C2CCCCC2)cc1
→ -0.41 | 0.3
- Cc1ccc(-n2ncc3c(NCc4ccc5c(c4)OCO5)ncnc32)cc1
→ 0.39 | -0.7
- COc1cc(C2C3=C(CCCC3=O)Nc3[nH]c(=O)[nH]c(=O)c32)cc(OC)c1OC (stereo not given)
→ nt | -1.0
- O=C(CN1CSCC1=O)Nc1ccc(I)cc1
→ nt | -4.4
- CC(=O)Oc1ccccc1C(=O)Oc1ccc(/C=N\n2cnnc2)cc1
→ 0.74 | 3.5
- CCN(C(=O)c1cc(S(=O)(=O)N2CCOCC2)cn1C)c1cccc(C)c1
→ 0.8 | -0.6
- CCCNC(=O)C1CSC2(CCN(C)CC2)N1C(=O)CC (stereo not given)
→ nt | 1.6
- CCc1ccc(C(=O)COC(=O)C2(CC(=O)N3CCOCC3)CCCC2)cc1
→ nt | -4.3
- CN(C)c1ccc(/C=C(\C#N)S(=O)(=O)C(C)(C)C)c(F)c1C#N
→ -0.48 | 1.4
- CCCc1cc(=O)[nH]c(SCC(N)=O)n1
→ nt | -0.8
- CCN(CC)S(=O)(=O)c1cccc(C(=O)OCC(=O)N2CC(=O)Nc3ccccc32)c1
→ nt | -3.6
- O=C(c1cc2ccccc2cc1OCC(=O)N1CCc2ccccc21)N1CCOCC1
→ nt | -0.8
- O=C(CN1CCCC1c1cccs1)NN1C(=O)NC2(CCCCC2)C1=O (stereo not given)
→ nt | 4.8
- COc1ccc(F)cc1CSc1nnc2nc(C)cc(C)n12
→ nt | 0.7
- CC(C)OC(=O)C1C2C=CC3(CN(c4cccc(Cl)c4)C(=O)C13)O2 (stereo not given)
→ -0.41 | 4.0
- CC(Nc1nc2nonc2nc1NC(C)c1ccccc1)c1ccccc1 (stereo not given)
→ nt | -0.1
- CN(CCO)c1cc(Br)c2noc3c2c1C(=O)c1ccccc1-3
→ -1.2 | 4.6
- COC(=O)CSc1c(-c2ccccc2)c2cc(Cl)ccc2[nH]c1=O
→ nt | -0.4
- CC(C)NC(=O)COc1ncnc2ccccc12
→ nt | 0.6
- Cc1ccc(NC(=O)CC(NC2CCCCC2)C(=O)O)cc1Cl (stereo not given)
→ -1.2 | 2.0
- O=C(NC1CCCCCCC1)C1=COCCO1
→ nt | 0.5
- Cn1nc(SCC(=O)NN)c(=O)n(C)c1=O
→ nt | -0.1
- COC(=O)c1cc(OCC(=O)c2ccc[nH]2)cc(C(=O)OC)c1
→ nt | 0.4
- O=c1c(NCc2ccccc2)nccn1-c1ccccc1
→ 0.38 | -1.5
- Cc1ccc(C(=O)O)cc1-c1ccc(C=C2C(=O)c3ccccc3C2=O)o1
→ 0.82 | 3.8
- NNC(=O)C1CC1c1ccccc1 (stereo not given)
→ 0.81 | 0.9
- CCN1C(=O)/C(=C/c2ccc(F)cc2)NC1=S
→ -1 | -1.0
- Cc1ccc(N2C(=O)C3N=NN(CC(=O)NCc4ccccc4Cl)C3C2=O)cc1C (stereo not given)
→ -0.33 | 1.6
- CCOC(=O)C1CCCN(S(=O)(=O)c2cccc3nsnc23)C1 (stereo not given)
→ nt | 0.5
- Cc1ccccc1CSCC(=O)c1ccc[nH]1
→ nt | 0.8
- C#CCN1C(=O)C(O)(C2CCc3ccccc3C2=O)c2ccccc21 (stereo not given)
→ -0.62 | -4.0
- Cn1c(SCc2ccccc2)nnc1C1CCCN1C(=O)Nc1ccccc1 (stereo not given)
→ -1.1 | -0.1
